Source: PubChem (National Center for Advancing Translational Sciences (NCATS))
TRPV1 potentiator: human TRPV1 potentiation. Q8NER1. potentiation, % at 8.33 µM. 320,000 tested, 0.02% active. TRPV1-expressing cells, Fluo-8 calcium influx, capsaicin EC20 potentiation; host cell line not named in the record; control for the full effect not named in the record; active means potentiation above 80%; inconclusive means 30% to 80%; inactive means below 30%; further: 0% is about no effect
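Fluo-8 calcium influx in TRPV1-expressing cells, kinetic read (ex 480/em 520 nm). Compound added and read 3 min for agonist activity, followed by capsaicin at EC20 final and 2 min further read for enhancement.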
CtBP-E1A blk: CtBP/E1A binding inhibition; 340,000 tested, 0.49% active; activity change, % (no concentration beside the values); AlphaScreen GST-E1A/His-CtBP binding, 1536-well; active compounds read low; control for the full effect not named in the record; in the data active means activity change below about -65%; inconclusive means about -30% to -65%; inactive means above about -30%; further: on the % scale 0 is the no-effect control and ±100 the full control effect
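AlphaScreen with 125 nM GST-E1A and 125 nM His-CtBP (5X stocks) in Tris pH 8.0, 300 mM NaCl, BSA, Tween 20, TCEP. Compounds preincubated 2 h at 37 deg C, then glutathione donor/nickel acceptor beads added for 1 h at 37 deg C in dark.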
D2 PAM: positive allosteric modulators of human D2 dopamine receptor | P14416 | DiscoveRx D2 beta-arrestin cells, luminescence, 90 min; 100% = 57 uM dopamine signal | potentiation, % (test concentration not listed) | 360,000 tested, 0.23% active | AID 624464; active = potentiation of 50% or more; inconclusive = 30% to 50%; inactive = 30% or less;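 further: compound concentration not given in the record; tested on top of an EC20 dose of dopamine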
Target sequence (P14416 whole entry, looked up): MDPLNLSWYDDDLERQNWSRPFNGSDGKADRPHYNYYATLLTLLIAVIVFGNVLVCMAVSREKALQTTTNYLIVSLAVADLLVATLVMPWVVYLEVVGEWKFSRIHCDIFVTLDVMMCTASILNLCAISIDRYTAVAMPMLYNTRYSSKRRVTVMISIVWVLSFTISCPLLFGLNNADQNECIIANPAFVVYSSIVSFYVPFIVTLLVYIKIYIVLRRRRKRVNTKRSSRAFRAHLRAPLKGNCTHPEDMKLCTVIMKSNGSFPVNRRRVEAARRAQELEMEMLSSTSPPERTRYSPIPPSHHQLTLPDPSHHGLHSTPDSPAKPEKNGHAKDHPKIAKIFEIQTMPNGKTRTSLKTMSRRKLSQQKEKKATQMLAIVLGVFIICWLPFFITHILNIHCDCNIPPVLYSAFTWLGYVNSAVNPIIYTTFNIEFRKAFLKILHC
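PathHunter beta-arrestin assay in DiscoveRx D2 cells. Compounds were added with an EC20 of dopamine (50 nM final) for 90 min at 37 deg C. Luminescence was read 1 h after detection reagent, with 57 uM dopamine as the EC100 control.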
Six1-Eya2 blk: inhibitors of human Six1/Eya2 interaction; Q15475+O00167; AlphaScreen GST-Six1/His-Eya2 binding, biochemical; active compounds read low; control for the full effect not named in the record; activity change, % (test concentration not listed); 360,000 tested, 0.56% active; AID 651725; in the data active = activity change below about -65%; inconclusive = about -30% to -65%; inactive = above about -30%; further: on the % scale 0 is the no-effect control and ±100 the full control effect
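GST-Six1 + His-Eya2 (5X stock: 250/500 nM); Tris pH 8.0, 300 mM NaCl, 0.05% BSA, 0.02% Tween 20; GSH donor/Ni acceptor beads; 1 h 37 °C dark; AlphaScreen readout.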
TRPML1 ag: agonists of human TRPML1 channel. Q9GZU1. TRPML1-expressing cells, Ca2+ dye fluorescence, FDSS; host cell line not named in the record; reference of the full effect not given here. activation, % (concentration not given with the values). 410,000 tested, 0.12% active. AID 624414; in the data active = activation above about 50%; inconclusive = about 30% to 50%; inactive = below about 30%; further: 0% is about no effect; the text of the record puts the active cut at 80%
Target sequence (Q9GZU1 whole entry, looked up): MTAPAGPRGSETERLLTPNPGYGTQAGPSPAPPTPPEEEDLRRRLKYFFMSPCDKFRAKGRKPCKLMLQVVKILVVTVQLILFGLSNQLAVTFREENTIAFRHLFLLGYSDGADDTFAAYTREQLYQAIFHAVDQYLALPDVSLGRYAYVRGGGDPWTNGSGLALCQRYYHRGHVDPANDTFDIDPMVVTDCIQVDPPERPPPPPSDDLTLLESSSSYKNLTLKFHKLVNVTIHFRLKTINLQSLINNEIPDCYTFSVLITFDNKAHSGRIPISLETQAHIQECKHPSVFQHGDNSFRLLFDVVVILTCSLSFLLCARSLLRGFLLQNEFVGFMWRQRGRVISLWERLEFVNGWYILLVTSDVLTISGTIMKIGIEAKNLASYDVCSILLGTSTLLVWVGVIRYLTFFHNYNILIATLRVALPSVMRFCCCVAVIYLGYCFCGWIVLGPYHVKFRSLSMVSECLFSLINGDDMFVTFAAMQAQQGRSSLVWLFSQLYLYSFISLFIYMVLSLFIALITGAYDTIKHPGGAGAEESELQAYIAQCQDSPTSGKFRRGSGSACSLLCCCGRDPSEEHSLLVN
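Calcium fluorescence on an FDSS kinetic reader gave the read-out. Tet-induced TRPML1-DL cells were plated overnight, dye-loaded (Ca8 with quencher, 45-90 min, room temperature, dark), then read 110 s after compound addition, and again 110 s after 4uM final 54-4 (EC80).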
TRPML1 inh: inhibitors of human TRPML1 channel; activity change, negative = inhibition, % (test concentration not listed); 390,000 tested, 0.02% active; TRPML1-inducible cells, Ca2+ dye fluorescence, FDSS; active compounds read low; inhibition of EC80 agonist-evoked calcium signal; AID 624415; in the data active means activity change below about -50%; inconclusive means about -30% to -50%; inactive means above about -30%;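 further: stimulus is agonist 54-4 at its EC80 concentration; on the % scale 0 is the no-effect control and ±100 the full control effect; compound concentration not given in the record; the text of the record puts the active cut at -80%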
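Tet-induced TRPML1-DL cells loaded with Ca8 no-wash calcium dye were read kinetically on FDSS. Compound addition was followed by EC80 agonist 54-4 (4 uM final); inhibition was read over 110 s.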
* = called active by the depositor; u = inconclusive; x = no result given; & = joins results of further samples. Random draw from the library, and some 0.95% of all compounds hit somewhere here.

Fields: TRPV1 potentiator	CtBP-E1A blk	D2 PAM	Six1-Eya2 blk	TRPML1 ag	TRPML1 inh
> N/C(=N\OC(=O)c1cccc(Cn2cc(C(F)(F)F)ccc2=O)c1)c1ccc(Cl)cc1
    9	-1	23	-2	0.5	13
> CCCCn1c(N)c(N(CCOC)C(=O)CCCc2cccs2)c(=O)[nH]c1=O
    -4	-3	18	11	0.4	-3
> CCOC(=O)C1CCN(S(=O)(=O)c2ccc(OC)c(Cl)c2Cl)CC1
    -17	10	-4	10	0.1	-13
> Cc1nnc(NC(=O)CSc2nnc3ncccn23)s1
    0	-20	-2	-11	0.3	6
> Cc1cccc(Oc2ccc(NC(=O)c3ccccc3C(=O)O)cc2)c1
    3	-5	-4	-6	x	x
> O=C(N/N=C/c1cc(Br)c(O)c(Br)c1)C1CC1
    1	-1	-11	9	-0.9	10
> Cc1cc(C)c(C)c(S(=O)(=O)N2CCN(C(=O)c3ccco3)CC2)c1C
    x	-3	0	-8	2.3	12
> Cc1cc(-n2c(=O)c(C#N)cc3c(=O)n4ccccc4nc32)no1
    0	-6	-4	-7	0.8	-4
> O=C(Nc1ccccn1)c1ccc(Br)s1
    1	-1	-5	-8	-0.5	-9
> COc1ccc2oc(=O)cc(CN3CCN(Cc4ccccc4)CC3)c2c1
    x	-2	-42	-3	-0.4&-0.7	4&5
> O=C(O)Cn1nc(-c2ccc(Cl)cc2)ccc1=O
    -9	2	0	4	0.8	17
> CCSc1ccccc1C(=O)NCc1ccc(S(N)(=O)=O)cc1
    -6	9	-5	3	0.8	40
> COc1ccc(C2C(C#N)=C(/N=C/N3CCN(C)CC3)OC3=C2C(=O)CC(C)(C)C3)cc1 (stereo not given)
    -5	-1	-7	4	-1.5	-15
> CC(SCc1nc2sc3c(c2c(=O)[nH]1)CCCC3)C(=O)Nc1ccccn1 (stereo not given)
    7	-1	-6	-6	1.2	-9
> O=C(CCCC(=O)NCc1ccc(F)cc1)NCc1ccc(F)cc1
    0	-16	-4	8	2.0	-3

(cont.)
Fields: TRPV1 potentiator	CtBP-E1A blk	D2 PAM	Six1-Eya2 blk	TRPML1 ag	TRPML1 inh
> COc1ccc(-c2cnc3c(NC(C)=O)cc(-c4cccc(C(=O)NCCN(C)C)c4)cn23)cc1OC
    x	-7	-4	0	-0.9	x
> CN(C)c1ccc(/C=N/NC(=O)c2ccc(Cn3cc(Br)cn3)o2)cc1
    -3	0	2	-14	1.5	11
> CC(C)(C)c1ccc(C(=O)NN2C(=O)CSC2=S)cc1
    15	0	-7	-1	x	x
> O=C1CC(c2cccc(Cl)c2)CC(O)=C1C=NCCCO (stereo not given)
    -8	5	-23	-1	1.5	11
> Cc1cc(C(=O)NNS(=O)(=O)c2ccc(F)cc2)nn1C(C)(C)C
    -12	x	-14	3	0.1	-8
> COc1ccc(C(=O)Nc2cccc3ccccc23)cc1
    -15	0	1	-1	0.5	-1
> Cc1ccc(CNC(=O)C2CC(c3cc(C(F)(F)F)cc(C(F)(F)F)c3)=NO2)o1 (stereo not given)
    7	-8	-2	-1	3.5	-5
> Cc1nc2c(cc1NC(=O)c1ccccc1)nc(C)n2Cc1ccccc1
    11	12	-5	-2	0.1	8
> CC(C)c1ccc(NC(=O)C(c2ccc3c(c2)OCO3)N2CCCCC2)cc1 (stereo not given)
    18	-1	-8	-10	-1.0	0
> O=C(O)c1ccc(N/N=C/C(Br)=C/c2ccccc2)cc1
    10	-13	-13	-12	0.1	-9
> CN(C)c1ccc(C2/C(=C(/O)c3ccc(Br)cc3)C(=O)C(=O)N2C)cc1 (stereo not given)
    7	x	-13	-5	-0.2	68
> Nc1ncc(S(=O)(=O)c2ccc(Cl)cc2)c(N)n1
    -13	9	-2	0	3.0	10
> CC(=O)c1ccc(Oc2ncnc(N)c2[N+](=O)[O-])cc1
    0	3	1	9	0.5	2
> CCC(C)NC(=O)CSc1nc2cc3c(cc2c(=O)n1Cc1ccco1)OCO3 (stereo not given)
    -3	-1	3	-4	0.1	11
> Cn1c(=O)c2c(nc(N/N=C/c3ccncc3)n2Cc2ccccc2)n(C)c1=O
    -8	0	-12	2	-0.4	-3

New compounds follow.
Fields: TRPV1 potentiator	CtBP-E1A blk	D2 PAM	Six1-Eya2 blk	TRPML1 ag	TRPML1 inh
> CCCn1c(=O)c(C(=O)NNC(=O)c2ccccc2Cl)c(O)c2ccccc21
    -11	u	-3	u	u	9
> CCC(Sc1ncccc1C(=O)OC(C)C)C(=O)NCc1ccco1 (stereo not given)
    4	-3	-9	-4	1.9	-20
> CC(=O)Nc1ccc(S(=O)(=O)N2CCCN(c3nc(C)cc(C)c3C#N)CC2)cc1
    -12	3	2	3	-0.1	-11
> COc1ccc(NC(=O)CCNC(=O)c2ccco2)cc1S(=O)(=O)N(C)C
    -1	-13	-9	-5	-0.3	-4
> Oc1ccc(-c2nnc(Nc3ccccc3)c3ccccc23)cc1
    7	-8	-6	-7	1.0	11
> O=C(Nc1cccc(Cl)c1)NC1CCN(C2CCCCC2)C1 (stereo not given)
    u	1	-26	-7	-0.1	4
> COCCNC(=O)C(c1ccccc1C)N(C(=O)Cn1nnc2ccccc21)c1cccnc1 (stereo not given)
    14	2	-6	16	-0.3	-5
> Cc1cccc2c1-c1sc(C(=O)NCCCN3CCCC(C)C3)cc1CO2 (stereo not given)
    -6	2	-26	10	-0.1	24
> CC(=O)Nc1ccc(S(=O)(=O)c2ccc(N)cc2)cc1
    7	-1	8	6	-1.1	-1
> CCOc1cc(C(=O)N/N=C/c2ccsc2)cc(OCC)c1OCC
    -24	4	-39	2	1.4	-4
> CC(C)=CCN1CCN(Cc2ccc(C)s2)CC1CCO (stereo not given)
    6	12	-12	0	-0.2	-29
> COc1ccc(C(=O)NC(=S)Nc2ccc(Cc3ccncc3)cc2)cc1
    -1	x	-8	-8	0.5	7
> CC(C)CCNC(=O)C(C)N(C(=O)Cn1nnc(-c2ccc(F)cc2)n1)C1CCCC1 (stereo not given)
    -15	5	-15	5	0.2	-7
> CC1(C(=O)NS(=O)(=O)C2CC2)CCCN(C(=O)c2ccccc2)C1 (stereo not given)
    x	10	-13	7	0.8	9
> CCC1CCCCN1C(=O)CSc1nnc(-c2cccs2)o1 (stereo not given)
    -13	-5	7	2	-0.3	u

A different layout for some results above.
| SMILES | TRPV1 potentiator | CtBP-E1A blk | D2 PAM | Six1-Eya2 blk | TRPML1 ag | TRPML1 inh |
| --- | --- | --- | --- | --- | --- | --- |
| N/C(=N\OC(=O)c1cccc(Cn2cc(C(F)(F)F)ccc2=O)c1)c1ccc(Cl)cc1 | 9 | -1 | 23 | -2 | 0.5 | 13 |
| CCCCn1c(N)c(N(CCOC)C(=O)CCCc2cccs2)c(=O)[nH]c1=O | -4 | -3 | 18 | 11 | 0.4 | -3 |
| CCOC(=O)C1CCN(S(=O)(=O)c2ccc(OC)c(Cl)c2Cl)CC1 | -17 | 10 | -4 | 10 | 0.1 | -13 |
| Cc1nnc(NC(=O)CSc2nnc3ncccn23)s1 | 0 | -20 | -2 | -11 | 0.3 | 6 |
| Cc1cccc(Oc2ccc(NC(=O)c3ccccc3C(=O)O)cc2)c1 | 3 | -5 | -4 | -6 | x | x |
| O=C(N/N=C/c1cc(Br)c(O)c(Br)c1)C1CC1 | 1 | -1 | -11 | 9 | -0.9 | 10 |
| Cc1cc(C)c(C)c(S(=O)(=O)N2CCN(C(=O)c3ccco3)CC2)c1C | x | -3 | 0 | -8 | 2.3 | 12 |
| Cc1cc(-n2c(=O)c(C#N)cc3c(=O)n4ccccc4nc32)no1 | 0 | -6 | -4 | -7 | 0.8 | -4 |
| O=C(Nc1ccccn1)c1ccc(Br)s1 | 1 | -1 | -5 | -8 | -0.5 | -9 |
| COc1ccc2oc(=O)cc(CN3CCN(Cc4ccccc4)CC3)c2c1 | x | -2 | -42 | -3 | -0.4&-0.7 | 4&5 |
| O=C(O)Cn1nc(-c2ccc(Cl)cc2)ccc1=O | -9 | 2 | 0 | 4 | 0.8 | 17 |
| CCSc1ccccc1C(=O)NCc1ccc(S(N)(=O)=O)cc1 | -6 | 9 | -5 | 3 | 0.8 | 40 |
| COc1ccc(C2C(C#N)=C(/N=C/N3CCN(C)CC3)OC3=C2C(=O)CC(C)(C)C3)cc1 (stereo not given) | -5 | -1 | -7 | 4 | -1.5 | -15 |
| CC(SCc1nc2sc3c(c2c(=O)[nH]1)CCCC3)C(=O)Nc1ccccn1 (stereo not given) | 7 | -1 | -6 | -6 | 1.2 | -9 |
| O=C(CCCC(=O)NCc1ccc(F)cc1)NCc1ccc(F)cc1 | 0 | -16 | -4 | 8 | 2.0 | -3 |
| COc1ccc(-c2cnc3c(NC(C)=O)cc(-c4cccc(C(=O)NCCN(C)C)c4)cn23)cc1OC | x | -7 | -4 | 0 | -0.9 | x |
| CN(C)c1ccc(/C=N/NC(=O)c2ccc(Cn3cc(Br)cn3)o2)cc1 | -3 | 0 | 2 | -14 | 1.5 | 11 |
| CC(C)(C)c1ccc(C(=O)NN2C(=O)CSC2=S)cc1 | 15 | 0 | -7 | -1 | x | x |
| O=C1CC(c2cccc(Cl)c2)CC(O)=C1C=NCCCO (stereo not given) | -8 | 5 | -23 | -1 | 1.5 | 11 |
| Cc1cc(C(=O)NNS(=O)(=O)c2ccc(F)cc2)nn1C(C)(C)C | -12 | x | -14 | 3 | 0.1 | -8 |

2 compounds from above, limited to TRPV1 potentiator, TRPML1 ag and Six1-Eya2 blk:
SMILES | TRPV1 potentiator | TRPML1 ag | Six1-Eya2 blk
CCOc1cc(C(=O)N/N=C/c2ccsc2)cc(OCC)c1OCC | -24 | 1.4 | 2
CC(C)=CCN1CCN(Cc2ccc(C)s2)CC1CCO (stereo not given) | 6 | -0.2 | 0

(more compounds)
Fields: TRPV1 potentiator	CtBP-E1A blk	D2 PAM	Six1-Eya2 blk	TRPML1 ag	TRPML1 inh
> CCCCCCCC1CC(/C(C)=N/NC(N)=O)OC1=O (stereo not given)
    1	8	-4	-4	0.0	-12
> Cc1ccc(NC(=O)Cc2c(C(=O)O)n(C)c3ccccc23)cc1F
    14	3	-13	-2	0.4	25
> O=[N+]([O-])c1c(NCc2ccccc2)cc(N2CCc3ccccc3C2)c2nonc12
    -32	-28	4	-13	0.2	8
> Cc1cnc(NC2=NCCC2)s1
    -4	-15	-11	-1	1.9	17
> COc1c(C)cc(S(=O)(=O)NCc2ccco2)c(C)c1C
    8	18	-4	0	-1.9	14
> O=C(CN1CCC(n2nnc3cc(F)ccc32)CC1)NCCc1nc2ccccc2[nH]1
    -9	10	-31	3	0.9	-4
> CC(C(=O)N1CCCC1)N1CCN(S(=O)(=O)c2ccc(OC(F)(F)F)cc2)CC1 (stereo not given)
    15	-4	17	6	0.3	3
